Bioassay records: PubChem, several laboratories
HSV replic up = enhancers of HSV replication in host cells, fold increase, host cell viability | HSV replication augmentation in cells | maximum fold increase | hit rate 0.005% among 220,000 | AID 1956, 2009;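 active = peak rise of 1.5-fold or more in the series; inconclusive = self-fluorescent or not available for retest; tested in PC3 cells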;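 note: first round at 10 µM; read as green reporter fluorescence; hits show the peak of a series up to 25 µM; 1 = signal of infected wells without compound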
GALR2 agonist = GALR2 receptor agonists, primary screen, cell-based. Galanin receptor type 2 (Homo sapiens), O43603. GALR2-expressing cells, agonist activation read-out. activation, %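 (tested at 5 µM)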. hit rate 0.48% among 140,000;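 active = above mean plus 3 SD of all compounds, about 5% in these data, not always enough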;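 note: 0% = vehicle buffer wells and 100% = reference agonist at full effect; tested in CHO reporter cells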
Insulin prom inh = inhibitors of insulin promoter-driven GFP, primary screen, imaging, TRM-6 cells (human fetal islet line), eGFP reporter, cell count | reporter expression induced with tamoxifen | inhibition, % at 2 µM | hit rate 0.9% among 130,000;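 active = inhibition above the mean plus 3 SD, with well images judged a real hit on visual review, cut at about 60% in these data, passing the limit was not always enough; inconclusive = inhibition over the cutoff but images rejected on review; inactive = inhibition not above the cutoff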
PKD1 kinase inh = inhibitors of human PKD1 kinase, biochemical, fluorescence polarization. Serine/threonine-protein kinase D1 (Homo sapiens), Q15139. PKD1 kinase fluorescence polarization assay. inhibition, %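 (about 10 µM by stock and volumes)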. hit rate 0.056% among 200,000. AID 797, 2007;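 active = inhibition of 50% or more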;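 note: controls were vehicle for no effect and a reference inhibitor for full effect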
Target sequence (Q15139 whole entry, looked up): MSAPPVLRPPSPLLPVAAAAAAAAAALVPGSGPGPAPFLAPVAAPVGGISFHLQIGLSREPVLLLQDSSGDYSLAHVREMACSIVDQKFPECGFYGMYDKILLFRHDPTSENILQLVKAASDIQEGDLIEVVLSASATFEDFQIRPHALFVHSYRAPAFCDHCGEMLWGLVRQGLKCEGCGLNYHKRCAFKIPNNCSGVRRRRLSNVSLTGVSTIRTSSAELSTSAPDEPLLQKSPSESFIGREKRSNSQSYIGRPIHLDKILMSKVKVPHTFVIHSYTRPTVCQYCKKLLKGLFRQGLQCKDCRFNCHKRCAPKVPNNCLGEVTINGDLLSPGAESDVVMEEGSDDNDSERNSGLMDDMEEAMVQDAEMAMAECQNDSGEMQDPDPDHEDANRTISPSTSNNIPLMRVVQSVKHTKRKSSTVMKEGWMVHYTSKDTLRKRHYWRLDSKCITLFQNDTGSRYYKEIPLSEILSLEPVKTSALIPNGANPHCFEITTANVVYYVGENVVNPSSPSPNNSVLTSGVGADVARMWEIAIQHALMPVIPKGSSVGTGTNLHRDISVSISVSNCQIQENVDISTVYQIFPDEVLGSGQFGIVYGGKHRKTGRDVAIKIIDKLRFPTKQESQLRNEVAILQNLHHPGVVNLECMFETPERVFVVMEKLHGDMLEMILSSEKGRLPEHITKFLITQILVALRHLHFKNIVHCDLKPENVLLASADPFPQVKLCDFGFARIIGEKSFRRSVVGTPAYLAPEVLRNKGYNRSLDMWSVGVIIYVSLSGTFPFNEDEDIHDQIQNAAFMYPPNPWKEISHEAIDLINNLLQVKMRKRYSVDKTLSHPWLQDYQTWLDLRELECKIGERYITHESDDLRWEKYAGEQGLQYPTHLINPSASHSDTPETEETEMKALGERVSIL
RGS16-Gao HTS = modulators of RGS16 binding to Galphao, primary screen, biochemical, human proteins, multiplexed bead flow cytometry. bead-based flow cytometry RGS16-Galphao binding, fluorescence; actives lie on both sides. hit rate 0.38% among 220,000. AID 1441, 2008. binding response (% of control), % at 10 µM. Regulator of G-protein signaling 16 (Homo sapiens) + Guanine nucleotide-binding protein …;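 active = below 25% or above 175%, edge rows of some plates excepted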;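 note: Galphao activated by GDP with aluminum fluoride before binding; 100% = wells without compound and 0% = beads without RGS; some results beyond the cut were filed as inactive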
Insulin prom inh cell count = further read-out of Insulin prom inh, marked with its call; normalized cell count, %; measured here: cell count, toxicity; reference of the scale not given here;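 cells exposed to compound for 48 h; stained nuclei by imaging scaled within each plate; lower means fewer cells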
HSV replic up primary fold = further read-out of HSV replic up, marked with its call; fold increase; compound at 10 µM; measured here: primary screen fold increase 10 uM; tested in PC3 cells;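 GFP signal in the first replicate; 1 = infected wells without compound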
An asterisk follows results filed as active; i = inactive; ? = inconclusive; / = not tested or not shown.

canonical_smiles | HSV replic up | HSV replic up primary fold | GALR2 agonist | Insulin prom inh | Insulin prom inh cell count | PKD1 kinase inh | RGS16-Gao HTS
CC(C)(C)OC(=O)N1CCC(c2cc(=O)n3[nH]c(-c4ccc(Cl)cc4)cc3n2)CC1 | i | 0.89 | -1.1 | / | / | -3.5 | 6.2
Cc1cc(C)cc(-n2c(C)cc(C(=O)CSc3nnnn3C)c2C)c1 | i | 0.89 | 0.7 | -3.6 | 77.6 | -3.2 | 106.4
Cc1ccc(Nc2nc(C3CC3)cs2)cc1 | / | / | -1.3 | / | / | -10.2 | 88.5
O=C(C1CC1)N1CCN=C1SCc1cccc(F)c1 | i | 1.12 | -1.8 | / | / | 0.0 | 103.8
COc1cc(/C=C(\C#N)c2nc3ccccc3s2)ccc1OCC(=O)Nc1ccccc1 | ? | / | -0.9 | -162.1 | 65.2 | -5.2 | 105.6
CCOc1cc(C(=O)Nc2ncn[nH]2)cc(OCC)c1OCC | i | 0.94 | / | / | / | 2.0 | 100.2
COc1ccc(-c2c(=O)n(OCc3ccccc3[N+](=O)[O-])c3ccccc3[n+]2[O-])c(OC)c1 | i | 0.97 | / | / | / | 6.3 | 105.7
O=C1N=C(N2CCOCC2)S/C1=C\c1ccccc1OS(=O)(=O)c1ccccc1 | i | 0.77 | / | / | / | / | 105.7
C=C(C)c1cccc(C(C)(C)NC(=O)NCc2ccc(OC)cc2)c1 | i | 0.89 | -1.0 | -23.1 | 146.7 | 6.4 | 110.1
Cc1ccc(Nc2c([N+](=O)[O-])ccc3c2=NC2(CCCCC2)N=3)cc1 | / | / | -2.3 | / | / | 3.5 | 97.8
O=c1cc(N2CCCCC2)[nH]c(=O)n1C1CCCCC1 | i | 0.94 | / | / | / | -1.2 | 124.8
Cn1c(=O)[nH]c2cc(Cl)cnc21 | i | 1.19 | -2.7 | / | / | 1.1 | 104.0
COc1ccc2c(c1)c(C(=O)N/N=C/c1ccc(O)c(O)c1)c(C)n2C | i | 0.96 | -0.4 | 28.0 | 97.0 | 16.9 | 92.1
COc1cccc(C(=O)C2CCCN(C(=O)c3ccc(C#CC(C)(C)O)cc3)C2)c1 (stereo not given) | i | 0.91 | / | / | / | -5.3 | 104.1
N#CC1=C(SCC(=O)NC2CCCCC2)NC(=O)CC1c1ccco1 (stereo not given) | i | 1 | 0.1 | -53.1 | 182.9 | -3.3 | 101.6
O=C(O)CC1S/C(=N/N=C/c2ccc(-c3ccc(Cl)c([N+](=O)[O-])c3)o2)NC1=O (stereo not given) | i | 0.86 | / | / | / | 1.0 | 98.1
CC(C)N(C(=S)NCc1ccccc1)c1ccccc1 | i | 1.01 | / | / | / | -3.5 | 98.2
COC(=O)Cc1ccc(NC(=S)NCc2ccco2)cc1 | i | 1.17 | / | -5.9 | 145.2 | -6.1 | 102.2
CC(=O)c1cc(C(C)=O)c(C)nc1C | i | 1.09 | / | -7.0 | 124.7 | -7.3 | 103.8
CCN(CC)C(=O)Oc1ccc(NC(C)=O)cc1 | i | 0.93 | -1.9 | 25.7 | 88.6 | -5.0 | 99.5
O=C(Cn1cnc2c(nnn2Cc2ccc(F)cc2)c1=O)NCc1ccco1 | i | 0.88 | -1.3 | 24.3 | 89.2 | -1.9 | 102.3
Cc1ccc(-n2ncc3c(N4CCN(c5ccc(F)cc5)CC4)ncnc32)c(C)c1 | i | 1.07 | -2.0 | 38.5 | 101.1 | -1.0 | 100.9
COc1ccc(N(C(=O)c2cccnc2)S(=O)(=O)c2ccccc2)cc1 | i | 0.95 | / | / | / | -6.8 | 104.7
CC1(CCc2ccccc2)NC(=O)N(CC(=O)O)C1=O (stereo not given) | i | 0.99 | / | / | / | / | 104.3
Cc1c(NC(=O)c2cccs2)cccc1C(=O)O | i | 0.85 | -0.2 | -35.1 | 59.6 | -8.6 | 89.0
COc1ccc(Br)cc1-c1nc(CCl)cs1 | i | 1.03 | / | 23.5 | 103.3 | 0.1 | 107.1
CC(=O)c1ccc(NC(=S)Nc2cccc3cnccc23)cc1 | i | 0.98 | / | / | / | / | 105.0
Cc1cc(C)cc(NC(=O)C(=O)NCCc2c[nH]c3ccccc23)c1 | i | 0.97 | / | / | / | -0.9 | 105.7
CC1(C)CC2(CC(c3ccccc3)c3ccc(O)cc3O2)NC(=S)N1 (stereo not given) | i | 0.95 | / | -21.4 | 111.0 | -5.7 | 103.1
O=C(O)CCCN1C(=O)/C(=C\c2ccco2)SC1=S | i | 1.02 | / | / | / | 4.3 | 104.4
COc1cccc2c(=O)c(C(=O)O)c[nH]c12 | i | 0.95 | -2.0 | -13.0 | 139.7 | 1.2 | 97.1
O=C(Cn1c2ccccc2c(=O)c2ccccc21)N/N=C/c1ccc(N2CCCC2)c([N+](=O)[O-])c1 | i | 1.02 | 4.0 | 9.7 | 66.7 | 1.6 | 96.8
Cc1ccc(/C=N/Nc2ccc(Cl)nn2)cc1 | i | 0.87 | / | / | / | / | 100.4
CS(=O)(=O)c1ccc(C(=O)OCC(=O)NC2CCS(=O)(=O)C2)cc1[N+](=O)[O-] (stereo not given) | i | 0.94 | / | 25.0 | 89.3 | 1.5 | 102.5
S=c1[nH]nc(C(c2ccccc2)C2CCCCC2)o1 (stereo not given) | i | 0.96 | / | / | / | / | 92.9
CCOC(=O)C(C)Oc1c(C(=O)OC)sc2ncccc12 (stereo not given) | i | 0.96 | / | 38.5 | 142.4 | 1.9 | 106.7
COCCn1c(SCc2nnc(-c3ccccc3)o2)nc2sc3c(c2c1=O)CCC3 | i | 1.06 | -2.7 | / | / | -6.4 | 43.0
CCC(=O)c1ccc(N2CCN(C(=O)c3cc([N+](=O)[O-])ccc3F)CC2)c(F)c1 | i | 1.05 | / | 15.8 | 117.4 | 9.7 | 99.7
Cc1ccc(CNC(C)(C)CO)cc1 | i | 0.96 | -1.6 | / | / | -13.7 | 99.2
Cc1ccc(NC(=O)CCCc2nc3ccccc3s2)c(O)c1 | i | 0.94 | / | / | / | -1.3 | 102.9
O=C1CC(c2ccco2)CC(O)=C1C=Nc1ccccc1-c1ccccc1 (stereo not given) | i | 1.08 | / | 11.1 | 54.0 | -3.8 | 102.0
O=C(/C=C/c1ccccc1[N+](=O)[O-])NCCN1C(=O)S/C(=C\c2ccc(F)cc2)C1=O | i | 0.97 | / | 5.0 | 137.3 | 0.0 | 114.7
CCCN(Cc1ccco1)S(=O)(=O)c1ccc(OC)c(OC)c1 | i | 1.14 | / | / | / | / | 98.7
S=c1[nH]nc(-c2ccc(Cl)cc2)n1CCCN1CCOCC1 | i | 0.96 | / | 26.7 | 85.7 | -4.1 | 101.2
COc1ccc(OC)c(NC(=O)C2CC(=O)N(CCc3ccccc3)C2)c1 (stereo not given) | i | 1.05 | / | -18.9 | 79.1 | -6.6 | 98.6
O=C(Nc1ccc(N2CCCC2)cc1)c1ccc([N+](=O)[O-])cc1Cl | i | 0.98 | -2.6 | 33.3 | 99.5 | -2.9 | 98.1
N#CCCSCc1ccc2oc(C(=O)O)cc2c1 | i | 1.15 | -1.8 | / | / | -11.8 | 103.9
CC(=O)c1ccc(N2CCN(C(=O)C3CCN(S(=O)(=O)Cc4ccccc4)CC3)CC2)cc1 | i | 0.98 | -1.6 | / | / | -6.1 | 105.4
CCCc1[nH]nc2c1C1(C(=O)N(C(C)C)c3ccccc31)C(C#N)=C(N)O2 (stereo not given) | i | 1 | -0.2 | / | / | -8.4 | 106.6
Cc1ccc(OCCOCCOc2ccc(Br)cc2/C=N\NC(=O)c2ccncc2)cc1 | i | 0.78 | -1.0 | / | / | -7.9 | 103.8
Cc1ccc(NC(=O)C(=O)NCCOc2ccccc2Cl)cc1 | i | 0.93 | -1.5 | 38.2 | 66.7 | 3.0 | 83.3
CS(=O)(=O)N1CCC(C(=O)Nc2ccc3c(c2)OCCO3)CC1 | i | 0.81 | -1.1 | -37.9 | 107.0 | -11.8 | 103.9
CCCc1nnc(NC(=O)Nc2ccccc2OC)s1 | i | 1.16 | -1.0 | / | / | -15.6 | 98.6
CN(n1cnc2ccccc2c1=O)S(C)(=O)=O | i | 1.09 | / | / | / | / | 100.9
CCc1c(O)nc(SCC(=O)N2CCCCC2)n(-c2ccccc2C)c1=O | i | 0.94 | 0.1 | -9.1 | 110.6 | -11.2 | 100.7
COc1ccccc1CC(=O)N1CCN(c2ccc([N+](=O)[O-])cc2)CC1 | i | 1.05 | / | 35.3 | 63.9 | -1.8 | 100.4
O=C(CSCC(=O)N1CCCCC1)OCC(=O)c1c[nH]c2ccccc12 | i | 0.87 | -2.3 | -15.4 | 109.2 | 3.6 | 103.6
O=C(C1CCN(Cc2cccs2)CC1)N1CCN(Cc2ccc3c(c2)OCO3)CC1 | i | 0.91 | / | 42.9 | 105.2 | -9.7 | 105.6
COc1ccccc1NC(=S)N(CCCN1CCOCC1)Cc1cn(C)c2ccccc12 | i | 0.67 | -0.6 | -53.3 | 135.4 | 3.4 | 102.8
CC(C)Cc1c(O)nc(SCC(=O)Nc2ccc3c(c2)CCC3)[nH]c1=O | i | 0.9 | 0.8 | -456.2 | 44.1 | 1.9 | 101.3

Going on with the list.
canonical_smiles | HSV replic up | HSV replic up primary fold | GALR2 agonist | Insulin prom inh | Insulin prom inh cell count | PKD1 kinase inh | RGS16-Gao HTS
O=c1cc(CSc2nnc(Nc3ccccc3F)s2)nc2sccn12 | i | 0.76 | / | / | / | -3.1 | 106.5
O=C(Nc1ccc(NS(=O)(=O)c2ccccc2)cc1)c1cccnc1 | i | 0.91 | / | -7.1 | 122.2 | -3.1 | 110.8
O=[N+]([O-])c1ccc(N2CCCCC2)s1 | i | 0.88 | / | -35.7 | 89.4 | -8.7 | 99.7
COc1ccc(CC(=O)Nc2nnc(SCC(=O)NCc3ccco3)s2)cc1OC | i | 1.02 | / | / | / | 1.7 | 97.3
O=C(NCc1ccc(C(F)(F)F)cc1)C1CC(c2ccccc2C(F)(F)F)=NO1 (stereo not given) | i | 1.05 | / | / | / | / | 105.7
COc1cccc(-c2nc(CS(=O)(=O)CC(=O)N3CCN(C)CC3)c(C)o2)c1 | i | 0.87 | -0.1 | / | / | -7.8 | 102.3
CC(=O)Nc1ccc(N(C(=O)CNC(=O)c2ccco2)C(C(=O)NCC2CCCO2)c2ccccc2)cc1 (stereo not given) | i | 1.03 | / | / | / | 11.1 | 99.6
O=C(NC(Cc1ccccc1)C(=O)O)/C(=C\c1ccccc1F)NC(=O)c1ccccc1 (stereo not given) | i | 0.88 | / | / | / | -4.3 | 99.0
Nc1c(-c2cccc([N+](=O)[O-])c2)nc2ccccn12 | i | 0.91 | -1.3 | 68.8* | 136.8* | -7.5 | 101.7
COc1ccc(C)cc1NC(=O)CCCN1C(=S)NC(C)(C)CC1C (stereo not given) | i | 0.97 | 0.2 | -25.0 | 129.5 | -4.7 | 102.2
COc1ccc(OC)c(-c2cc(C(=O)NCc3ccc(Cl)cc3)no2)c1 | i | 0.89 | / | / | / | 0.8 | 99.9
Cc1ccccc1NC(=O)N1CCN(C(=O)c2ccco2)CC1 | i | 0.92 | / | / | / | -11.9 | 100.0
CCCNC(=O)c1onc(CSc2ccncc2)c1C(=O)NCCC | i | 0.86 | / | / | / | / | 98.2
O=C(OCc1ccccc1Cl)c1ccccc1C(=O)c1ccccc1 | i | 0.94 | -0.4 | -9.7 | 60.1 | 2.7 | 90.6
Cc1n[nH]c(=S)n1/N=C/c1ccccc1OCc1ccc(Cl)cc1Cl | i | 0.67 | -2.5 | 18.4 | 121.8 | -6.2 | 15.3*

Sorted by value in GALR2 agonist (low to high): some entries from above.
SMILES | HSV replic up primary fold | GALR2 agonist | PKD1 kinase inh | RGS16-Gao HTS
Nc1c(-c2cccc([N+](=O)[O-])c2)nc2ccccn12 | 0.91 | -1.3 | -7.5 | 101.7
O=C(OCc1ccccc1Cl)c1ccccc1C(=O)c1ccccc1 | 0.94 | -0.4 | 2.7 | 90.6
COc1cccc(-c2nc(CS(=O)(=O)CC(=O)N3CCN(C)CC3)c(C)o2)c1 | 0.87 | -0.1 | -7.8 | 102.3

This is a random part of the collection, and some 1.3% of all compounds hit somewhere here.
